HSV replic up: HSV replication enhancement; 0.005% of 220,000 active; AID 1956; HSV replication augmentation in cells, fold increase; maximum fold increase;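 active = peak rise of 1.5-fold or more in the series; inconclusive = self-fluorescent or not available for retest; tested in PC3 cells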;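 also: first round at 10 µM; read as green reporter fluorescence; hits show the peak of a series up to 25 µM; 1 = signal of infected wells without compound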
PKD1 inh: inhibitors of human PKD1 kinase. Q15139. 0.056% of 200,000 active. inhibition, %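 (about 10 µM by stock and volumes)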. PKD1 kinase fluorescence polarization assay;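 active = inhibition of 50% or more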;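 also: controls were vehicle for no effect and a reference inhibitor for full effect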
GALR2 ag: GALR2 (human) receptor agonism; O43603; GALR2-expressing cells, agonist activation read-out; activation, %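 (tested at 5 µM)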; 0.48% of 140,000 active;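 active = above mean plus 3 SD of all compounds, about 5% in these data, not always enough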;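 also: 0% = vehicle buffer wells and 100% = reference agonist at full effect; tested in CHO reporter cells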
Target sequence (O43603 whole entry, looked up): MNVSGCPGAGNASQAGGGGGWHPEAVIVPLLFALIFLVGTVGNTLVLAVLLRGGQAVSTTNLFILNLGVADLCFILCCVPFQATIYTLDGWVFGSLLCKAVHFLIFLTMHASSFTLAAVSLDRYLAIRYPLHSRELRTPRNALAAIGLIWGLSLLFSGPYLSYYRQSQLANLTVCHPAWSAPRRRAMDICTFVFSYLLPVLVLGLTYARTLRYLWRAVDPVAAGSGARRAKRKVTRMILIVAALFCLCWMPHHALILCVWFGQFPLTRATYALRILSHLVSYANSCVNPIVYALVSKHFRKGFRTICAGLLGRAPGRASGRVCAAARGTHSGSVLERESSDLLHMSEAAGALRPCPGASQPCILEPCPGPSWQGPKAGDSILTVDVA
Insulin prom inh: TRM-6 insulin promoter activity inhibition; TRM-6 cells (human fetal islet line), insulin promoter-eGFP reporter, imaging; reporter expression induced with tamoxifen; inhibition, % at 2 µM; 0.9% of 130,000 active;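 active = inhibition above the mean plus 3 SD, with well images judged a real hit on visual review, cut at about 60% in these data, passing the limit was not always enough; inconclusive = inhibition over the cutoff but images rejected on review; inactive = inhibition not above the cutoff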
RGS16-Gao HTS: regulators of human RGS16-Galphao interaction; 0.38% of 220,000 active; bead-based flow cytometry RGS16-Galphao binding, fluorescence; actives lie on both sides; binding response (% of control), % at 10 µM;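 active = below 25% or above 175%, edge rows of some plates excepted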;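 also: Galphao activated by GDP with aluminum fluoride before binding; 100% = wells without compound and 0% = beads without RGS; some results beyond the cut were filed as inactive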
Target sequence (O15492 whole entry, looked up): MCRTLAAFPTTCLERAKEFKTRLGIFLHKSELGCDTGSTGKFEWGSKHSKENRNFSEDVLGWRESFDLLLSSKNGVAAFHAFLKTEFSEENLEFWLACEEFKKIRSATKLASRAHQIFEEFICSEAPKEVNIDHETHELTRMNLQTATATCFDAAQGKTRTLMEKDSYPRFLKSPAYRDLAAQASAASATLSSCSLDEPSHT
Target sequence (P09471 whole entry, looked up): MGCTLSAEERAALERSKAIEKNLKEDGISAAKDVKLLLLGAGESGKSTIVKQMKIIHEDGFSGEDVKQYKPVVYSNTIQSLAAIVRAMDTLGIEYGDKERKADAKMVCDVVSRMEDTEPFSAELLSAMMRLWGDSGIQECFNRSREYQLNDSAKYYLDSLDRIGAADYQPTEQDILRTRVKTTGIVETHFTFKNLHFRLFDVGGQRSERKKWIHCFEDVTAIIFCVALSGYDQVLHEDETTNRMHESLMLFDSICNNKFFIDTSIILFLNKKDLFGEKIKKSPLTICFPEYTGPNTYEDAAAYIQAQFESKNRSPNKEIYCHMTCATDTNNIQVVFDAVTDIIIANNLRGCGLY
Insulin prom inh cell count: recorded beside Insulin prom inh, whose call it bears; normalized cell count, %; measured here: cell count, toxicity; reference of the scale not given here;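 cells exposed to compound for 48 h; stained nuclei by imaging scaled within each plate; lower means fewer cells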
HSV replic up primary fold: further read-out of HSV replic up, marked with its call; fold increase; compound at 10 µM; measured here: primary screen fold increase 10 uM; tested in PC3 cells;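 GFP signal in the first replicate; 1 = infected wells without compound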
Starred values were filed as active, the others as inactive; i = inactive; ? = inconclusive; . = no result given. Compounds were not picked by outcome. Share with any hit: about 1.3%.

Values run as follows: HSV replic up, HSV replic up primary fold, PKD1 inh, GALR2 ag, Insulin prom inh, Insulin prom inh cell count, RGS16-Gao HTS
#1 c1ccc(CCn2c(C3CC3)nc3ccccc32)cc1
    i, 0.88, -0.9, -1.4, -59.3, 57.4, 101.9
#2 C#CCSc1nncn1C(=O)/C=C/c1ccccc1
    i, 0.87, -12.0, -2.2, ., ., 99.7
#3 CC1CCc2nc3ccc(S(=O)(=O)N4CCC(C(=O)N5CCCCC5)CC4)cc3c(C(=O)O)c2C1 (centres undefined)
    i, 0.97, 3.3, -1.5, ., ., 101.2
#4 CCOCCNC(=O)c1ccccc1C(=O)NCCOCC
    i, 0.83, -8.0, -2.1, -12.1, 99.4, 123.2
#5 COc1cccc(-n2c([S-])c(C(=O)Nc3ccc(C(F)(F)F)cc3)[n+]3ccccc23)c1
    i, 0.95, -3.9, ., ., ., 106.1
#6 CCCc1c(C)c2cccc(C)c2[nH]c1=O
    i, 1.04, -16.9, -0.6, 3.9, 101.7, 99.7
#7 CC(C)c1onc(C(=O)Nc2sc3c(c2C#N)CCC3)c1[N+](=O)[O-]
    i, 1.1, -4.2, ., ., ., 103.0
#8 Cc1cccc(NC(=O)c2cnc3ccccn3c2=O)c1
    i, 1.01, -6.7, -2.0, 60.0, 121.5, 98.8
#9 COc1ccc(Cn2c(-c3ccc(OC)c(O)c3)nc3ccccc32)cc1O
    i, 0.81, -7.8, ., 19.1, 196.4, 106.2
#10 Cc1c2ccccc2nc2c(F)c(NCCO)c(F)c(F)c12
    i, 1.08, 23.6, -0.1, -112.1, 47.1, 124.5
#11 Cc1cc(NC(=O)CSc2n[nH]c(N)n2)no1
    i, 0.98, -7.4, ., 46.1, 111.6, 101.6
#12 Cc1n[nH]c(=O)nc1NC1CCCCC1
    i, 1.01, -6.0, -1.3, -65.2, 100.4, 100.8
#13 CN(C)S(=O)(=O)c1ccc(S(=O)(=O)Nc2ccc3c(c2)oc2ccccc23)cc1
    i, 0.98, -4.4, -1.4, 21.1, 71.9, 104.4
#14 FC(F)Sc1ccc(NC(=S)NC(c2ccccc2)c2ccccc2)cc1
    i, 0.7, -0.8, ., 9.1, 106.4, 113.6
#15 CSCCC(=O)Nc1nc(-c2ccccn2)cs1
    i, 0.91, -5.8, ., -36.4, 120.0, 98.5
#16 COc1ccc(CNS(=O)(=O)NCc2ccc(OC)c(OC)c2)cc1
    ., ., 3.8, ., 15.4, 150.2, 95.3
#17 CC(=O)Nc1ccc(NC(=O)C2CC(=O)N(c3cccc(C)c3C)C2)cc1 (centres undefined)
    i, 0.853, -4.2, -2.5, 30.8, 131.2, 100.5
#18 OCCCNC(=S)Nc1ccc(Br)cc1Cl
    i, 0.94, ., ., ., ., 101.6
#19 COc1cccc(S(=O)(=O)Nc2ccc(C(=O)NCc3ccco3)cc2)c1
    i, 0.75, 0.1, -0.9, -2.7, 101.3, 106.6
#20 CCc1c(C)nc2ncnn2c1NCCc1ccccc1
    i, 0.86, -3.2, -2.0, -10.8, 194.0, 102.9
#21 O=C(N/N=C1\CCCc2ccccc21)c1cccc(Br)c1
    i, 0.88, -6.2, ., -42.9, 130.1, 101.5
#22 O=C(Cc1ccccc1)NNC(=O)c1cnccn1
    i, 1.09, -4.8, -0.7, 40.7, 81.7, 112.0
#23 CN(CC(=O)Nc1ccc(F)cc1)C(=O)CSc1nc2ncc(Cl)cc2[nH]1
    i, 0.98, 3.5, ., -163.6, 107.8, 109.1
#24 O=C(Nc1ccc(N2C(=O)C3C4C=CC(C4)C3C2=O)cc1)Nc1nnc(C(F)(F)F)s1 (centres undefined)
    i, 0.92, -6.0, -0.9, ., ., 96.7
#25 NCCCC[C@H](NC(=O)C1CCNCC1)c1nnc([C@@H](N)Cc2ccc(O)cc2)o1
    i, 0.8, -8.3, ., ., ., 107.3
#26 COc1cccc(C(=O)Cn2c(=N)n(C)c3ccccc32)c1
    i, 0.99, 4.3, -1.0, 8.7, 110.8, 115.5
#27 CCc1cccc(C)c1N(C(=O)Cn1c(COC)nc2ccccc21)C(C)COC (centres undefined)
    i, 0.96, -5.7, -2.3, ., ., 99.9
#28 Cc1ccc2c(c1)c1nnc(SCC(=O)N3CCN(c4ccc(F)cc4)CC3)nc1n2CC(=O)O
    ., ., 10.2, -2.2, ., ., 103.2
#29 Cc1cccc(C)c1OCCOCCN1CCN(C)CC1
    i, 0.86, -10.7, -0.9, -15.8, 140.1, 81.9
#30 Cc1ccc(CNC(=O)COC(=O)c2cnc(C)cn2)cc1
    i, 1.01, -1.9, ., ., ., 101.7
#31 Cn1cc(/C=C2\SC(=S)N(NC(=O)c3cccc(Cl)c3)C2=O)c2ccccc21
    ?, ., ., ., ., ., 101.2
#32 CCCCCc1nnc(NC(=O)Cc2cccs2)s1
    i, 0.9, -7.0, -1.7, 37.5, 133.2, 92.9
#33 CC(=O)Oc1ccc2nc(CN3C(=O)c4ccc([N+](=O)[O-])cc4C3=O)oc(=O)c2c1
    i, 1.18, -0.5, ., 54.5, 99.0, 101.2
#34 CCc1noc(C)c1C(=O)N1CCCC1
    i, 1.02, 4.9, -1.2, 58.3, 130.5, 100.8
#35 CN(C)CCNC(C(=O)Nc1cccc(C(F)(F)F)c1)c1ccccc1 (centres undefined)
    i, 1.21, 4.4, ., -22.2, 114.3, 100.6
#36 COc1c2occc2c(OC)c2c(=O)cc(C)oc12
    i, 0.74, -14.8, 0.6, 21.7, 118.7, .
#37 Cc1csc(Sc2ccc(C(=O)OCC(=O)Nc3ccc(F)cc3[N+](=O)[O-])cc2[N+](=O)[O-])n1
    i, 1.11, 2.1, -3.1, 22.6, 119.6, 102.0
#38 CCCN1Cc2cccc(C(=O)NCc3ccccc3)c2C1=O
    i, 0.93, -3.3, -2.3, -14.3, 173.1, 108.7
#39 CCO/C=C1/C(=O)N(Cc2ccccc2)C(=O)c2ccccc21
    i, 0.94, -0.3, -1.2, 50.0, 113.0, 101.0
#40 CCOC(=O)Cn1cc([N+](=O)[O-])c(OC)n1
    i, 0.88, 1.6, -3.6, -44.9, 102.1, 83.4
#41 CCC(c1nnnn1Cc1cccs1)N1CCN(C(=O)c2ccco2)CC1 (centres undefined)
    i, 1.05, -3.0, ., ., ., 71.9
#42 O=C(CN1CCN(Cc2ccccc2)CC1)N1CCN(c2ccccc2)CC1
    i, 1.23, ., ., ., ., 105.4
#43 CC(=O)Nc1ccc(S(=O)(=O)NC(CC(=O)NCCc2ccccc2)C(C)C)cc1 (centres undefined)
    i, 0.86, 1.5, -1.4, -47.8, 116.0, 100.7
#44 CCOC(=O)N1CCN(c2c(NCCCN(CC)Cc3ccccc3)c(=O)c2=O)CC1
    i, 1.06, 2.1, 0.2, ., ., 101.9
#45 CCOC(=O)Cc1nc2cc(Cl)ccc2o1
    i, 0.99, -7.5, ., ., ., 112.8
#46 C=CCNC(=S)Nc1ccc(C)cc1[N+](=O)[O-]
    i, 0.92, 1.8, ., ., ., 94.1
#47 CCN(CC)S(=O)(=O)c1ccc(/C(O)=C2/C(=O)C(=O)N(CCOC)C2c2ccccc2)cc1 (centres undefined)
    i, 0.87, -0.7, -1.6, 29.6, 89.6, 105.0
#48 CC1CC(C)CN(CCCSc2ccccc2)C1 (centres undefined)
    i, 0.73, -3.5, 0.3, -49.2, 68.2, 99.9
#49 COc1cc(C=O)ccc1Oc1nc(Nc2ccc(F)cc2F)nc(N2CCOCC2)n1
    i, 1, 0.1, ., -14.3, 88.6, 100.8
#50 O=S1(=O)CCN(OCc2ccc(F)cc2Cl)CC1
    i, 0.97, -5.2, ., 66.7, 120.8, 103.0
#51 O=C(Cn1nc(-c2ccccc2)ccc1=O)NCCN1CCN(c2cccc(Cl)c2)CC1
    i, 0.85, 1.8, -3.3, -63.3, 123.2, 108.4
#52 Cc1nc(Nc2nc3ccccc3o2)nc(C)c1C(=O)Nc1ccc(F)cc1
    i, 0.97, -0.2, ., 0.0, 54.7, 104.2
#53 NC(=O)C1(N2CCCCC2)CCN(C(=O)CSc2nc3ccccc3s2)CC1
    ., ., -3.9, -4.0, -200.0, 107.7, 105.8
#54 CCCCCNC(=O)CC1Nc2c3ccccc3nc(=S)n2C1=O (centres undefined)
    i, 0.89, -8.0, -2.7, -2.8, 119.2, 102.2
#55 CC(=O)Nc1ccc2ccc3cccc4ccc1c2c34
    i, 0.86, -4.8, -0.3, ., ., 96.5
#56 COc1ccc2c(c1OC)C(=O)OC2Nn1cncn1 (centres undefined)
    i, 1.03, -12.4, -2.0, 6.2, 82.9, 96.8
#57 CC(=O)NC(Cc1ccccc1)C(=O)NC1CCN(C(=O)c2ccc([N+](=O)[O-])cc2)CC1 (centres undefined)
    i, 0.99, 8.8, -1.2, -28.6, 100.4, 105.7
#58 COc1ccccc1-c1noc(-c2ccccc2)n1
    ., ., -8.3, -0.3, -11.1, 167.4, 107.8
#59 Cc1ccc(N(C(=O)C(F)(F)F)C(C(=O)NC2CCCCC2)c2ccncc2)cc1C (centres undefined)
    i, 1.04, -5.6, 0.7, ., ., 79.4
#60 N#C/C(=C/c1ccc(N2CCOCC2)o1)c1ccc(Br)cc1
    i, 0.87, -15.4, -1.3, -54.3, 90.2, 91.2

Carrying on.
Values run as follows: HSV replic up, HSV replic up primary fold, PKD1 inh, GALR2 ag, Insulin prom inh, Insulin prom inh cell count, RGS16-Gao HTS
#61 C=CCSc1nnc2n(CCc3ccccc3)c(=O)c3c4c(sc3n12)COC(C)(C)C4
    i, 1.01, -0.4, -0.1, 14.3, 90.3, 100.2
#62 Cc1cc(C(=O)OCC(=O)c2cccc([N+](=O)[O-])c2)c2ccccc2n1
    i, 0.98, -10.3, -1.0, ., ., 108.7
#63 CN(C)S(=O)(=O)c1ccc2c(c1)nc(CCC(=O)Nc1ccc(N3CCOCC3)cc1)n2C
    i, 0.75, -10.5, ., ., ., 102.7
#64 CCOc1ccccc1NC(=O)NCc1ccccc1
    i, 1.04, 8.9, ., 50.0, 77.7, 104.7
#65 O=c1cc(N2CCN(Cc3ccccc3)CC2)c(-c2ccccc2)n[nH]1
    i, 0.76, -0.5, -3.0, -39.3, 116.9, 100.0
#66 CCCCn1c(=O)n(CC(O)c2ccccc2)c(=O)c2c1ncn2C1CCCC1 (centres undefined)
    i, 0.95, -9.9, -0.8, 27.3, 85.4, 104.5
#67 CCCCc1ccc(NC(=O)C2CCN(S(C)(=O)=O)CC2)cc1
    i, 0.83, 2.8, -2.7, -18.2, 103.0, 100.3
#68 O=c1c2ccccc2nc(-c2ccc(Cl)cc2Cl)n1CCCn1ccnc1
    i, 0.87, -1.0, -1.9, -10.5, 71.9, 105.4
#69 COc1ccc(C)cc1N(CC(=O)NC1CCCC1)C(=O)CCC(=O)Nc1cc(C)on1
    i, 1.03, -10.1, -0.8, ., ., 97.0
#70 O=C(NCCc1ccc(O)cc1)c1ccc(Cl)cc1
    i, 0.9, 11.9, -2.1, 11.6, 115.2, 99.4
#71 Cc1ccc(N2CCN(S(=O)(=O)N3CCCCC3)CC2)cc1C
    i, 0.96, -6.6, ., -33.3, 151.7, 100.3
#72 COc1ccc(N=C2SCC(=O)N2Cc2ccccc2)cc1
    i, 0.99, -4.2, ., 5.0, 95.9, 105.2
#73 COc1ccc(NC(=S)NCCCc2ccccc2)cc1
    i, 0.87, -2.8, -1.6, ., ., 104.3
#74 O=C(Cc1ccccc1)NNS(=O)(=O)c1ccc([N+](=O)[O-])cc1
    i, 0.97, -13.6, -1.0, 28.0, 125.1, 95.3
#75 O=C(CCOc1ccccc1)NCC(c1ccco1)N1CCCCC1 (centres undefined)
    i, 0.85, 5.6, -0.4, -36.4, 134.3, 105.0
#76 NC(=O)NC(=O)CC1S/C(=N/N=C2\CSC(=O)N2)NC1=O (centres undefined)
    i, 0.98, 2.4, ., ., ., 97.5
#77 COc1ccc(OC)c(NS(=O)(=O)c2ccc(Cl)s2)c1
    i, 0.96, -15.2, -1.3, 57.1, 25.9, 92.9
#78 Cc1ccc(N(C(=O)c2sc(C)nc2C)C(C(=O)NC(C)(C)C)c2ccncc2)cc1 (centres undefined)
    i, 0.95, -1.6, ., ., ., 100.0

Assay outcomes deposited in PubChem BioAssay by several laboratories.
